TRPML1 inh: inhibitors of human TRPML1 channel | TRPML1-inducible cells, Ca2+ dye fluorescence, FDSS; stronger effect = lower value; inhibition of EC80 agonist-evoked calcium signal | activity change, negative = inhibition, % (no concentration beside the values) | 390,000 compounds, 0.02% hits; in the data active means activity change below about -50%; inconclusive means about -30% to -50%; inactive means above about -30%;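 note: stimulus is agonist 54-4 at its EC80 concentration; % is set by controls: 0 for no effect and ±100 for the full control effect; compound concentration not given in the record; the text of the record puts the active cut at -80%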
Target sequence (Q9GZU1 whole entry, looked up): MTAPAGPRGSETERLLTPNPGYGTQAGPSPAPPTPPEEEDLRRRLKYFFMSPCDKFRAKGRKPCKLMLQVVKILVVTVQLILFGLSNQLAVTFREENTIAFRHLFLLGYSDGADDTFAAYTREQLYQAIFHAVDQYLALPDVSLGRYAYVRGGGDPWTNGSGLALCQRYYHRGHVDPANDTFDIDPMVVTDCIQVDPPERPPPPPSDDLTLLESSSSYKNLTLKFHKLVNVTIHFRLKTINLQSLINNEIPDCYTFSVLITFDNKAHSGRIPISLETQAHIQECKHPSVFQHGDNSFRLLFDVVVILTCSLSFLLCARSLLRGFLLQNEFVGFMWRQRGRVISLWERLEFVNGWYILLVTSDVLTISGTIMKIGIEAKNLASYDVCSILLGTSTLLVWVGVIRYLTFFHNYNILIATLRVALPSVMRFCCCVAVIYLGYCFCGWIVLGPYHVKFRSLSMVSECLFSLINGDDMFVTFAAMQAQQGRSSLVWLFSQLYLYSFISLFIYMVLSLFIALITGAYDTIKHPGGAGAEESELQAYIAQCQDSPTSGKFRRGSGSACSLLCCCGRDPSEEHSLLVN
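Tet-induced TRPML1-DL cells loaded with Ca8 no-wash calcium dye were read kinetically on FDSS. Compound addition was followed by EC80 agonist 54-4 (4 uM final); inhibition was read over 110 s.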
D2 ag: activates the human D2 dopamine receptor | 360,000 compounds, 0.084% hits | DiscoveRx PathHunter D2 beta-arrestin, luminescence, 90 min; 100% = 57 uM dopamine signal | activation, % (test concentration not listed) | AID 624465 | P14416; in the data active = activation above about 40%; inconclusive = about 15% to 40%; inactive = below about 15%; note: compound concentration not given in the record; the text of the record calls up to 30% inactive
Target sequence (P14416 whole entry, looked up): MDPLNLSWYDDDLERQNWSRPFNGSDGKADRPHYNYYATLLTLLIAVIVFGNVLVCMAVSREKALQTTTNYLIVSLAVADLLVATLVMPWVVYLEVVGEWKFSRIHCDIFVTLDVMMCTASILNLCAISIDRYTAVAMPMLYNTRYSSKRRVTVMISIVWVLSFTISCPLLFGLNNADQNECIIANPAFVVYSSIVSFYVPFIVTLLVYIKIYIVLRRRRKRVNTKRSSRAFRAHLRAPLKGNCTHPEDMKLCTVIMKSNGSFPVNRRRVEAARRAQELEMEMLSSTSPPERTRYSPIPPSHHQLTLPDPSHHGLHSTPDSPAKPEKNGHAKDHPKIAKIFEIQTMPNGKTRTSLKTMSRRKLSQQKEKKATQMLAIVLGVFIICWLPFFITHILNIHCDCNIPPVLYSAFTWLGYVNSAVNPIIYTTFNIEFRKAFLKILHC
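DiscoveRx PathHunter D2 beta-arrestin cells (2,100/well) attached overnight, then compound-stimulated 90 min at 37 C in HBSS/10 mM HEPES/0.1% Tween-20 buffer; beta-galactosidase complementation read by luminescence after 1 h at ambient temperature. Dopamine 57 uM final (EC100) as control.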
TRPML1 agonist: activates the human TRPML1 channel; TRPML1-expressing cells, Ca2+ dye fluorescence, FDSS; host cell line not named in the record; reference of the full effect not given here; activation, % (concentration not given with the values); 410,000 compounds, 0.12% hits; AID 624414; in the data active = activation above about 50%; inconclusive = about 30% to 50%; inactive = below about 30%; note: 0% is about no effect; the text of the record puts the active cut at 80%
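In this qHTS format, compounds were pin-transferred onto Ca8-dye-loaded TRPML1-DL cells induced with Tet overnight, and intracellular Ca2+ fluorescence was recorded kinetically for 110 s after a 10 s baseline. A subsequent 4uM final 54-4 (EC80) addition followed by a second 110 s read served as the antagonist phase.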
Six1-Eya2 blk: inhibitors of human Six1/Eya2 interaction. activity change, % (no concentration beside the values). AID 651725. 360,000 compounds, 0.56% hits. AlphaScreen GST-Six1/His-Eya2 binding, biochemical; stronger effect = lower value; control for the full effect not named in the record; in the data active = activity change below about -65%; inconclusive = about -30% to -65%; inactive = above about -30%; note: % is set by controls: 0 for no effect and ±100 for the full control effect
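AlphaScreen with GST-Six1 and His-Eya2 (5X mix: 250 nM and 500 nM), glutathione donor and nickel acceptor beads; buffer 50 mM Tris pH 8.0, 300 mM NaCl, 1 mM TCEP; 1 h at 37 C in the dark.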
D2 potentiator: potentiates the human D2 dopamine receptor allosterically; DiscoveRx D2 beta-arrestin cells, luminescence, 90 min; 100% = 57 uM dopamine signal; potentiation, % (test concentration not listed); P14416; 360,000 compounds, 0.23% hits; AID 624464; active = potentiation of 50% or more; inconclusive = 30% to 50%; inactive = 30% or less;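 note: compound concentration not given in the record; tested on top of an EC20 dose of dopamine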
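D2 cells co-treated with compound plus 50 nM dopamine (EC20) for 90 min at 37 deg C to detect potentiation. Beta-arrestin recruitment was read as enzyme-fragment luminescence after 1 h at ambient temperature. Full response was set by 57 uM dopamine.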
PINK1 modulator: modulators of PINK1 expression. PINK1 immunofluorescence, high-content cytometry, 24 h. Potency, µM (titrated, usually from 76.6 µM), without a hit: at the top dose activation (PINK1 increase), actives largely listed as activators. 410,000 compounds, 0.2% hits. AID 624263; active = well fitted activation curve with a large enough effect; inconclusive = small, poorly fitted or top-dose-only effect; inactive = flat fitted curve, though single readings scatter; cell line not stated here;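 note: potency is the fitted concentration of half-maximal effect; % of control where 0% means no effect; nearly all actives have a fitted effect of over 65% in size; a mitochondrial uncoupler was the plate control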
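Decision-based qHTS: stable cells, 24 h exposure to five compound concentrations, CCCP as control. Fixed cells stained for PINK1 plus nuclear, mitochondrial and cell markers, cytometer read.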
An asterisk follows results filed as active; u = inconclusive; x = not tested or not shown; [ ] = dose if it differs, or a comment.

smiles | Six1-Eya2 blk | TRPML1 inh | D2 potentiator | D2 ag | PINK1 modulator | TRPML1 agonist
Cc1cc(-c2nc3ncccc3o2)ccc1NC(=O)c1ccc([N+](=O)[O-])o1 | 8 | -12 | -5 | 0.6 | -0.2% | -0.3
CCOC(=O)Cn1c(=O)n(CC2CCCO2)c2nc(-c3ccc(C)cc3)nc(C(N)=O)c21 (stereo unspecified) | x | 26 | x | x | 0.1% | 3.9
Cc1cc(C(=O)N/N=C/c2ccc([N+](=O)[O-])s2)n[nH]1 | -9 | -2 | -3 | 0.8 | 11% | 0.3
Cc1cc(S(=O)(=O)c2ccc([N+](=O)[O-])cn2)ccc1Br | -5 | -2 | -5 | 1.4 | -4.0% | -0.2
CCCc1cc2c(cc1NC(=O)c1ccco1)OCO2 | 7 | u | 1 | -0.8 | -0.3% | 0.4
COc1ccc(/C=C2/N=C(SC)NC2=O)cc1OC | -7 | -15 | -10 | 3.4 | -0.5% | 0.7
CC1(OC(=O)C2CCCC2)C(=O)C=C2C=C(c3ccsc3)N(CC3CC3)C=C2C1=O (stereo unspecified) | -13 | -5 | u | 9.6 | 2.0% | -0.9
CN(CC(=O)N1CCCCCC1)S(=O)(=O)c1ccc(Br)cc1 | 7 | 4 | 2 | 0.8 | 0.7% | 0.3
COc1ccc(C)cc1NC(=O)COC(=O)c1ccc2ccccc2n1 | 4 | 15 | -3 | 2.9 | 0.1% | 1.5
COc1ccc(CC(=O)OCC(=O)Nc2ncc(Cl)c(C)c2Cl)cc1 | 2 | -13 | 18 | 2.0 | 4.0% | 1.7
Cc1cc(C)c(C(=O)COC(=O)C2CC3CCCC(C2)C3=O)c(C)c1 (stereo unspecified) | 8 | 17 | 6 | 5.3 | 4.8% | 0.1
O=C(O)c1ccc(N2C(=O)CC(Cc3ccccc3)C2=O)cc1 (stereo unspecified) | 9 | -15 | -2 | -3.5 | 0.8% | -0.2

The last 2 entries of the section above lead into the next.
smiles | Six1-Eya2 blk | TRPML1 inh | D2 potentiator | D2 ag | PINK1 modulator | TRPML1 agonist
Cc1cc(C)c(C(=O)COC(=O)C2CC3CCCC(C2)C3=O)c(C)c1 (stereo unspecified) | 8 | 17 | 6 | 5.3 | 4.8% | 0.1
O=C(O)c1ccc(N2C(=O)CC(Cc3ccccc3)C2=O)cc1 (stereo unspecified) | 9 | -15 | -2 | -3.5 | 0.8% | -0.2
CCOC(=O)c1cc(C)sc1/N=C/C1=C(O)CCCC1=O | -6 | -6 | -7 | -2.3 | 1.4% | 0.1
CCn1c(=O)[nH]c2cc(Cl)c(Cl)cc21 | 0 | -3 | 9 | -3.9 | 2.9% | -0.9
C=CCNC(=O)CN1CCC(n2nnc3cc(C(F)(F)F)ccc32)CC1 | 7 | 0 | 10 | 2.3 | -0.8% | 0.1
Cc1noc(C)c1CSCC(=O)Nc1nc2ccccc2s1 | 5 | -3 | -6 | 2.7 | 2.4% | 0.2
CCC(=O)Nc1nnc(-c2ccncc2)s1 | 1 | -10 | -1 | -0.6 | 1.6%[38.3 µM] | -0.1
NC(=O)c1nc(-c2cccs2)nc2c1[nH]c(=O)n2-c1ccc(F)cc1 | 7 | 14 | -3 | -5.3 | 5.7% | -0.5
Cn1nnnc1SCC(=O)NCc1ccco1 | 2 | 8 | -13 | -0.3 | 5.0% | -0.4
Cc1cc(Cl)ccc1OCC(=O)Nc1ccccc1C(=O)N1CCOCC1 | -4 | 12 | 14 | -2.5 | 1.6% | 0.0
CCn1c(COc2ccccc2C)nnc1SCC(=O)O | 3 | 4 | 3 | -2.5 | 0.3% | -0.3
CCOc1ccc(S(=O)(=O)N2CCOCC2)cc1NS(=O)(=O)c1ccc(OC)c([N+](=O)[O-])c1 | 1 | 15 | -23 | -6.4 | -0.1% | -0.4
Cc1ccc(/C=C/C(=O)NCc2cccs2)cc1 | 4 | 12 | -12 | -1.7 | 0.4% | 1.7
Cc1ccc(-n2cc(-c3ccccc3)c3c(N4CCC(C)CC4)ncnc32)cc1Cl | x | 26 | x | x | 1.4% | 0.4
C=C(C)CN1C(=O)C(C)SC1=NN=C1SCC(=O)N1C (stereo unspecified) | 10 | -7 | -11 | -6.2 | -0.3% | -0.4
COc1ccccc1CCNC(=O)c1cnccn1 | 7 | -3 | -4 | 0.4 | -9.7%[38.3 µM] | 0.8
N#CC1=C(N)Oc2n[nH]c(-c3cccnc3)c2C1c1ccc([N+](=O)[O-])o1 (stereo unspecified) | -15 | -10 | 55* | 9.0 | 0.1% | -0.6
O=C(C1CCC(=O)N(C2CCCCCC2)C1)N1CCN(c2ccccc2Cl)CC1 (stereo unspecified) | 1 | -7 | -9 | 6.2 | 2.2% | 0.4
COc1cccc(OC)c1C(=O)OCC(=O)N1CCC(Cc2ccccc2)CC1 | 5 | -7 | -3 | -0.4 | -0.2% | 0.0
CCCCc1nn2c(=O)cc(COC(=O)c3cccc(NC(=O)c4cccs4)c3)nc2s1 | x | 32 | x | x | 1.1% | -0.2
O=C(COC(=O)C1CC1)NC(=O)NCc1ccccc1 | 1 | -14 | -3 | -6.5 | 2.8% | -0.4
Cc1cccc(CN2CCN(Cc3cccc(-n4cccn4)c3)CC2CCO)n1 (stereo unspecified) | 9 | -25 | -15 | -4.5 | -0.3% | -0.7
Cc1ccccc1C(c1ncccc1C)N(C)C(=O)C1CCN(CCOc2ccc(Cl)cc2Cl)CC1 (stereo unspecified) | -15 | x | -4 | 3.3 | -1.1% | 0.8
Cc1ccc(C(=O)OCc2nnc(-c3ccccc3)o2)s1 | 8 | -8 | -5 | 0.5 | 0.4% | -1.1
CC1CCC(C(=O)NC(C(=O)OCC(=O)c2ccccc2)C(C)C)CC1 (stereo unspecified) | x | 10 | x | x | 2.8% | -0.4
O=C(CSc1nncn1-c1ccccc1)NCc1cccs1 | -3 | 19 | 5 | -2.6 | -0.1% | 0.7
O=C(O)c1ccc(CSc2nc3ccccc3o2)cc1 | -2 | -3 | -9 | -3.6 | -1.1% | -0.2
CC(C)C(NS(=O)(=O)c1ccccc1)C(=O)OCc1cc([N+](=O)[O-])cc2c1OCOC2 (stereo unspecified) | 1 | 28 | -1 | -1.6 | 3.3% | 0.0
COc1cc(/C=N/Nc2ccc(F)cc2F)cc(OC)c1O | 4 | -18 | 29 | 7.7 | -0.2% | 0.1
O=c1c2oc3ccccc3c2ncn1Cc1cccc(Cl)c1 | -3 | 2 | -1 | -4.0 | -0.4% | 0.1
CC12CCC(C(=O)Nc3ccccc3)(C/C1=N\O)C2(C)C (stereo unspecified) | 0 | 8 | -2 | -0.1 | 1.6% | 0.4
CC(C)CCCC(C)NC(=O)c1cc(S(=O)(=O)N2CCCCC2)ccc1N1CCOCC1 (stereo unspecified) | -9 | 2 | -5 | -8.1 | 11% | 1.8
CN(C)CCN(Cc1ccccc1)c1ccnc(N(C)C)c1C#N | -9 | -8 | -4 | -3.9 | -2.2% | 0.8
CSc1ccccc1COC(=O)Nc1ccccc1C | -2 | -6 | -4 | 3.3 | 1.4% | 1.7
Cc1cc(C(F)(F)F)nn1-c1nc(-c2ccco2)cc(C(F)(F)F)n1 | 16 | -18 | -6 | -0.9 | 2.7%[38.3 µM] | 2.8
Cc1ccc(CNC(=O)COC(=O)c2cc3c(s2)CCC(C)C3)cc1 (stereo unspecified) | 20 | -11 | -1 | -0.7 | 3.4% | 2.9
O=C(NCCc1ccc(Cl)cc1)c1ccc(Nc2nc3ccccc3n3nnnc23)cc1 | x | 22 | x | x | 4.7% | -0.2
O=c1c2c(-c3cccs3)csc2ncn1-n1cccc1 | -7 | 9 | -21 | -2.7 | -4.8%[38.3 µM] | 0.2

Shown as labelled records: entries from further up
> CN(C)CCN(Cc1ccccc1)c1ccnc(N(C)C)c1C#N
  Six1-Eya2 blk: -9
  TRPML1 inh: -8
  D2 potentiator: -4
  D2 ag: -3.9
  PINK1 modulator: -2.2%
  TRPML1 agonist: 0.8
> O=C(O)c1ccc(CSc2nc3ccccc3o2)cc1
  Six1-Eya2 blk: -2
  TRPML1 inh: -3
  D2 potentiator: -9
  D2 ag: -3.6
  PINK1 modulator: -1.1%
  TRPML1 agonist: -0.2

Next part:
smiles | Six1-Eya2 blk | TRPML1 inh | D2 potentiator | D2 ag | PINK1 modulator | TRPML1 agonist
COc1ccc(-c2onc(C)c2C)cc1S(=O)(=O)NC1CCC(C)CC1 (stereo unspecified) | x | 36 | x | x | -0.3% | -0.2
CN(C)S(=O)(=O)c1ccc(Cl)c(NC(=O)COC(=O)CCC(=O)c2cccs2)c1 | 2 | 15 | -9 | 4.0 | 2.3% | 1.1
COCC(C)n1c(C)cc(C(=O)COC(=O)c2oc3ccccc3c2C)c1C (stereo unspecified) | -19 | 5 | -7 | 2.9 | -0.4% | 2.0
COc1cccc(-c2ccc(NC(=O)C3CCCN(CCCn4cccn4)C3)cc2)c1 (stereo unspecified) | 2 | 6 | -28 | 2.8 | 8.7% | 2.5
CC(C)(C)c1nc(NC(=O)Nc2ccccc2)sc1Br | 1 | -3 | -4 | -1.6 | u | -0.1
O=c1[nH]c2c(c(=O)n1Cc1ccccc1)CCC2 | 4 | -14 | -13 | -7.5 | -0.5% | 0.8
O=C(COC(=O)c1ccc(O)cc1)Nc1cccc(S(=O)(=O)NC2=NCCC2)c1 | -8 | -1 | -2 | 6.4 | 1.2% | 1.8
CC1CCCCN1C(=S)NC(=O)c1ccco1 (stereo unspecified) | -8 | 8 | 11 | 2.3 | 1.5% | -0.3
CC(C)OCCCNC1=C(Cl)C(=O)c2ccccc2C1=O | -18 | 26 | 5 | 2.2 | -0.9% | 3.7
Cc1nn(-c2ccccc2)c(Cl)c1C(=O)NCCCCNC(=O)c1c(C)nn(-c2ccccc2)c1Cl | 9 | -1 | -2 | 0.6 | -0.2% | 1.7
O=C(Cn1cc(C(F)(F)F)ccc1=O)Nc1ccc2c(c1)OCCO2 | 18 | -3 | -6 | -2.3 | -0.9% | 0.3
CCCc1nnc(NC(=O)CCC(=O)NC2CC2)s1 | 14 | 30 | -3 | 2.6 | 5.1% | 0.0
CCn1c(=O)n(CC)c2cc(S(=O)(=O)N3CCCCC3)c(C)cc21 | -1 | 3 | -5 | -0.1 | 6.7%[38.3 µM] | -0.1
COc1ccc(-c2nc(CS(=O)CC(=O)NCc3ccc(Cl)cc3)c(C)o2)cc1 (stereo unspecified) | 0 | 2 | -5 | -2.3 | 4.7% | 0.6
CC(=O)Nc1ccc(CN2C(=O)C(CCc3ccccc3)ON=C2c2cnccn2)cc1 (stereo unspecified) | -10 | x | 3 | 6.2 | 0.4% | -0.1
O=C(COC(=O)C1CCCCC1)NCCc1ccccc1 | 7 | -11 | -6 | -3.0 | -1.6% | -0.5

Screening results from PubChem.
